Compound activity (PubChem BioAssay)
A1 inh: inhibitors of the anti-apoptotic protein A1, read as caspase activation; MEF A1-2A-BIM cells, Caspase-Glo 3/7 luminescence, 3 h; percent of clofoctol response, vehicle zero; caspase activation, % (test concentration not listed); 330,000 tested, 0.066% active;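 active means over half of replicate activation scores above 10%, or exactly half above 10 with the replicate mean above 10; inconclusive means replicate mean below 10 yet half the replicates above 10; inactive means over half of replicates below 10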;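 further: wells of about 30 µL received 50 nL stock; many hits fall short of the cut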
UCH37 inh: inhibitors of human deubiquitinating enzyme UCH37; Q9Y5K5; purified proteasome/UCH37, Ub-AMC cleavage fluorescence; inhibition, % (no concentration beside the values); 330,000 tested, 0.33% active; AID 588478;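 active means mean of two replicates above 20%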;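 further: 0% = compound-free wells with enzyme and 100% = wells lacking proteasome; stock transfer was 100 nL into about 20 µL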
Target sequence (Q9Y5K5 whole entry, looked up): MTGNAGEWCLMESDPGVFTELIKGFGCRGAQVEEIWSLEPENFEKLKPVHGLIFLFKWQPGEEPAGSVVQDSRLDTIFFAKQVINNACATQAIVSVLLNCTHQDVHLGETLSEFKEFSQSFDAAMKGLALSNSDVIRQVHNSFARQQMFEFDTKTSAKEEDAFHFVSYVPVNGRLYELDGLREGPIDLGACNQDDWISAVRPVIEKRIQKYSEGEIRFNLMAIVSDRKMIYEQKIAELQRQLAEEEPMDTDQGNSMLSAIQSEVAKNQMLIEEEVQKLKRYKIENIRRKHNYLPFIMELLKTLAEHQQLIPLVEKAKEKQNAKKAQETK
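Signal – fluorescence, ex 355 nm, em 460 nm · System – Proteasome-bound UCH37 · Input – 0.15 nM proteasome as dispensed · Timing – 30 min preincubation with enzyme, 25 min cleavage at room temperature · Read-out basis – percent inhibition of cleavage signal versus uninhibited and no-proteasome wells · Medium – Tris-HCl pH 7.4 with ATP-MgCl2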
Calb FLC: affects C. albicans growth with fluconazole | C. albicans CaCi-2 (fluconazole-resistant clinical isolate) + fluconazole, Alamar Blue growth, 48 h | growth inhibition, % (concentration not given with the values) | 300,000 tested, 0.57% active;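 active means most replicates above 75%; inconclusive means exactly half above 75%; inactive means most below 75%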;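 further: all wells also contain fluconazole at 8 µg/ml as a sub-toxic cotreatment; 0% = median of DMSO wells and 100% = median of geldanamycin control wells; wells of about 8 µL received 7.5 nL stock; the first replicate is given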
Beta2AR agonist: activates human beta-2 adrenergic receptor causing internalization; AID 504454; response, % (no concentration beside the values); Am2.2-beta2AR cells, FAP receptor internalization, flow cytometry; reference of the scale not given here; 340,000 tested, 0.43% active; P07550;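 active means response above a set limit, near 3 SD of response in nonfluorescent compounds, cut at about 42% in these data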;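 further: stock transfer was 100 nL into about 11 µL; a reference agonist was the positive control; negative values mostly stem from fluorescent compounds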
Target sequence (P07550 whole entry, looked up): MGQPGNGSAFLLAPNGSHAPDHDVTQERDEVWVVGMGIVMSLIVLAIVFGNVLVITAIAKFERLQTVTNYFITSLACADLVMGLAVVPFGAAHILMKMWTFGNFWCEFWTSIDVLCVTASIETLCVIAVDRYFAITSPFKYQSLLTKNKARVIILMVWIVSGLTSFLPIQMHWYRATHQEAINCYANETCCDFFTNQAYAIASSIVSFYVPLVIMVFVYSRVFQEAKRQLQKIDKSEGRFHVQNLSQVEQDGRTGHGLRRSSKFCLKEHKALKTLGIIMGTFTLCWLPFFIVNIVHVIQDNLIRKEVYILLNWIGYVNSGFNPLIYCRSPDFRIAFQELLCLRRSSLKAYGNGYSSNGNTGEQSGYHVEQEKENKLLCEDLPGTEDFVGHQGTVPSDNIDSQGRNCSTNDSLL
T cruzi repl: blocks replication of Trypanosoma cruzi; T. cruzi beta-gal in NIH3T3, luminescence, 90 h; 300,000 tested, 1.4% active; inhibition, % (test concentration not listed);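 active means mean inhibition across valid replicates above about 55%, limit read from the data; inconclusive means mean below that limit but half or more replicates reach it; inactive means mean below it, under half of replicates reach it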;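 further: signal also drops with host cell toxicity which is not excluded here; 0% = plate median of DMSO wells and 100% = zero luminescence signal; higher percent means less beta-gal luminescence so fewer parasites; stock transfer was 50 nL into about 50 µL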
LANA-H2A inh: blocks KSHV LANA binding to histone H2A/H2B. Q9QR71. cell-free LANA-H2A/H2B peptide, fluorescence polarization. 320,000 tested, 0.6% active. inhibition, % (concentration not given with the values); in the data active means inhibition mostly above about 10%, no sharp cut-off; inactive means mostly below about 6.7%;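 further: stock transfer was 7.5 nL into about 10 µL; 0% = median of vehicle wells and 100% = median of positive control wells; one replicate is shown; the record names a cut of 25% in any replicate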
Beta apoptosis: beta cell apoptosis inhibition; protection from apoptosis, % (test concentration not listed); INS-1E cytokine-induced death, ATP luminescence, 48 h; percent of positive-control rescue, neutral wells zero; 300,000 tested, 0.8% active;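 active means all replicates at 75% or more, or half of them and the mean; inconclusive means half reach 75% but not the mean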;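 further: 0% = cytokine-treated negative control wells and 100% = positive control rescue; higher means more ATP so stronger rescue from cytokine killing; wells of about 40 µL received 100 nL stock; the first replicate is given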
RanGTP-Impb inh: inhibitors of RanGTP-importin-beta interaction, primary screen, biochemical, FRET, CFP-Ran, YFP-importin-beta, homogeneous; AID 2216; cell-free CFP-Ran/YFP-importin-beta FRET ratio; 300,000 tested, 1.1% active; inhibition, % (concentration not given with the values);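 active means most replicates above 15%; inconclusive means exactly half above 15%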;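 further: 0% = DMSO wells and 100% = Ran loaded with GDP instead of GTP; wells of about 40 µL received 100 nL stock; the first replicate is given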
Active calls of the source: *; i = inactive; ? = inconclusive; / = not tested or not shown.

SMILES	A1 inh	UCH37 inh	Calb FLC	Beta2AR agonist	T cruzi repl	LANA-H2A inh	Beta apoptosis	RanGTP-Impb inh
COc1ccc(S(=O)(=O)N2c3ccc(F)cc3CCC2C)cc1 (stereo unspecified)	1.3	2.1	-9	26	-3	-6.6	/	2.5
Cc1cc(C)cc(NC(=O)CN2CCc3cc4c(cc3C2C)OCCCO4)c1 (stereo unspecified)	-0.9	-0.9	10	-8	18	-4.3	-5	2.2
Fc1ccc(NC(=S)Nc2cccc3ccccc23)cc1	-0.4	-0.4	15	-5	4	-0.3	9	4.7
Cc1cccc(N(C(=O)CNC(=O)c2ccco2)C(C(=O)NC2CCCC2)c2ccncc2)c1C (stereo unspecified)	0.2	5.0	-6	-8	-4	-1.3	-5	-5.2
O=c1[nH]c(=O)n(CCOc2ccc(Cl)cc2)cc1Br	-0.2	7.3	-55	6	0	1.5	13	1.3
COc1cc(-c2noc(CCCC(=O)NCc3ccccc3)n2)cc(OC)c1OC	1.2	1.5	-12	8	4	1.4	-4	4.2
O=C1/C(=C/Nc2cccc([N+](=O)[O-])c2)CCc2ccccc21	0.5	0.3	13	-7	44	-1.6	5	-0.5
CC1CCCCC1NC(=O)CCC(=O)N1CCOc2ccc(Cl)cc21 (stereo unspecified)	-1.0	0.7	-9	4	-1	1.4	-1	1.4
COc1ccc(C(=O)c2c3ccc(OC)cc3[n+]([O-])n2CCCC(N)=O)cc1	-0.3	3.8	-6	-9	7	6.6	7	-0.1
Cc1cccc(NC(=O)CCN2CCCCC2)c1	1.1	3.0	-8	3	-4	3.4	2	-0.9
N#C/C(=C\c1ccc(Sc2ccccc2)o1)c1nc2ccccc2[nH]1	-7.1	-2.8	-1	-10	61*	3.1	/	-6.0
O=C(CN1CCN(S(=O)(=O)c2ccccc2)CC1)Nc1ccccc1C(=O)c1ccccc1	0.0	3.3	27	-4	32	-0.2	5	-3.4
Cc1ccc(N2C(=O)c3cccc4cccc(c34)C2=O)cc1	0.4	-5.1	-5	1	-40	-1.0	-2	-1.4
O=C(CN(Cc1ccc(Cl)cc1)C(=O)CNS(=O)(=O)c1ccccc1)NCC1CCCO1 (stereo unspecified)	-0.5	5.0	-7	-2	-4	-5.1	-3	0.6
COc1ccc(C(=O)NCC(=O)NCC(=O)OCC(=O)c2ccc(C)cc2)cc1	-1.1	1.3	-1	1	-12	-2.9	-6	-2.2
CCN(c1ccccc1)S(=O)(=O)c1ccc(C(=O)Nc2ccccn2)cc1	-1.0	2.3	4	0	-10	-5.1	-1	-1.3
CCCc1nc2scc(-c3ccccc3)c2c(=O)n1N	-0.6	5.8	-34	5	9	4.3	-2	/
COc1cc(/C=C/C(C)=O)cc(OC)c1OC	-0.2	5.3	5	5	-8	2.7	-16	-4.0
COc1ccc(-c2nc(CN(CC3CCC(=O)N3)C(C)C)c(C)o2)c(C)c1C (stereo unspecified)	-0.1	-2.0	15	0	7	6.7	2	-0.5
CCc1nnc(NC(=O)CSc2ncnc3scc(-c4ccc(C)cc4)c23)s1	1.2	4.7	-6	0	-16	5.3	-5	-0.6
CCc1cc2ccc(C)cc2nc1SCC(=O)NNC(=O)c1ccco1	-0.5	2.1	3	1	-12	-1.1	-5	-1.1
Cc1onc(C(=O)NN)c1-c1csc(COc2ccc(Cl)cc2)n1	-2.5	2.6	11	3	/	-6.6	/	0.4
CC(C)Sc1nc2c([nH]1)c(=N)ncn2Cc1ccccc1	-0.4	5.2	8	-10	-3	0.8	9	?
c1ccc2sc(NN=C3CCCCCC3)nc2c1	-8.1	-2.8	106*	3	43	-0.8	3	2.0
Cc1ccccc1NNC(=O)C(=O)NNc1ccccc1C	-0.4	5.5	-15	4	-18	-1.1	3	-2.0
O=C(COC(=O)CCCSc1nc2ccccc2[nH]1)Nc1cccc(F)c1	-0.5	0.9	11	-3	-20	-0.7	-2	-1.0
O=C1NN=C(c2ccccc2)CC1c1c[nH]c2ccccc12 (stereo unspecified)	0.9	-3.4	46	-9	-3	9.1	-2	-5.8
Cc1cccc(OCC(=O)Nc2ccccc2-c2ccccc2)c1	0.0	-0.3	17	-5	3	/	-5	0.5
Cc1cc(C)cc(NC(=S)N2CCC(NC(=O)C3CC3)CC2)c1	1.5	1.9	-7	5	-15	4.1	-1	-0.2
O=C(Nc1ccc(S(=O)(=O)Nc2ccnn2-c2ccccc2)cc1)C(F)(F)F	0.4	5.6	-5	-4	-7	2.6	-2	2.3
Cc1nc(SCCOc2ccccc2F)[nH]c(=O)c1Cc1ccccc1	0.0	-0.1	-10	4	7	5.7	-5	8.1
COc1ccccc1NC(=O)Cn1nc(-c2ccc(Cl)cc2)c2ccccc2c1=O	-0.1	0.4	0	11	7	-0.8	6	-4.5
CCOC(=O)C1CCN(C2=C(NS(=O)(=O)c3ccc(Br)cc3)C(=O)c3ccccc3C2=O)CC1	-0.7	23*	/	13	16	-16	9	1.4
O=C(Nc1nc2c(cc3c4c(cccc42)CC3)s1)c1ccccc1Cl	-1.2	-78	4	2	25	-3.9	-9	-0.5
COCCN(Cc1cn[nH]c1-c1ccc2cc(OC)ccc2c1)C(C)C	0.0	5.3	-5	-6	65*	0.5	/	1.0
Cc1cccc(N=C2CSC(=O)N2)c1	-0.4	2.1	4	0	-5	-0.6	4	-0.1

Overlap with the part before: 2 entries, then new ones.
SMILES	A1 inh	UCH37 inh	Calb FLC	Beta2AR agonist	T cruzi repl	LANA-H2A inh	Beta apoptosis	RanGTP-Impb inh
COCCN(Cc1cn[nH]c1-c1ccc2cc(OC)ccc2c1)C(C)C	0.0	5.3	-5	-6	65*	0.5	/	1.0
Cc1cccc(N=C2CSC(=O)N2)c1	-0.4	2.1	4	0	-5	-0.6	4	-0.1
COc1cc(CCC(=O)O)on1	1.7	4.0	-11	-8	-8	0.4	-8	6.1
CC1CCCC(NC(=O)CSc2ncccn2)C1C (stereo unspecified)	-0.1	2.6	/	1	/	-3.1	0	/
O=C(Oc1cccc(Nc2ncnc3ccccc23)c1)c1ccccc1Cl	0.5	-45	9	1	7	2.7	18	-5.5
COc1ccc(/C(O)=C2/C(=O)C(=O)N(CC3CCCO3)C2c2cccc(OC)c2)cc1 (stereo unspecified)	0.0	9.4	6	-2	5	-0.6	-2	-3.4
CCc1nnc(NC(=O)c2ccc(S(=O)(=O)N3CCN(Cc4ccccc4)CC3)cc2)s1	-0.6	2.5	24	-7	-1	-0.9	-12	4.0
O=C1C(=O)N(CC(=O)N2CCCC2)c2ccccc21	-0.7	1.0	-51	3	-3	2.9	-8	2.2
O=C(Cc1ccc(Br)cc1)Nc1ccccc1Cl	-2.3	3.2	-17	-13	-7	-4.7	/	1.5
Cc1cc(Nc2ccccc2)nc(-c2ccccc2O)n1	?	-7.0	-4	2	-5	1.0	6	1.1
Cc1nc2ccc(NS(=O)(=O)c3ccc(F)c(F)c3)cc2s1	-1.2	2.1	/	1	/	-2.6	9	/
Cc1ccc(C(=O)Nc2ccc(N3CCCCC3)cc2)cc1	-0.6	1.9	/	3	/	0.3	-1	/
CCOC(=O)N1CCN(C(=O)c2ccc(S(=O)(=O)c3ccc(C)cc3)c(NC(C)=O)c2)CC1	0.7	-1.4	15	-2	12	0.1	0	-5.0
O=C(Nc1ccc2c(c1)nc1n2CCN(C2CCCCC2)C1)NC1CCCCC1	1.3	/	21	/	-4	0.6	-3	-1.6

2 successive entries from above, quoted:
SMILES	A1 inh	UCH37 inh	Calb FLC	Beta2AR agonist	T cruzi repl	LANA-H2A inh	Beta apoptosis	RanGTP-Impb inh
COc1cc(CCC(=O)O)on1	1.7	4.0	-11	-8	-8	0.4	-8	6.1
CC1CCCC(NC(=O)CSc2ncccn2)C1C (stereo unspecified)	-0.1	2.6	/	1	/	-3.1	0	/

New compounds follow.
SMILES	A1 inh	UCH37 inh	Calb FLC	Beta2AR agonist	T cruzi repl	LANA-H2A inh	Beta apoptosis	RanGTP-Impb inh
Cc1ccc(/C=C2\C(=O)ON=C2c2ccccc2)o1	1.3	8.5	-8	5	-16	-4.4	1	-3.7
COc1cc(S(=O)(=O)NCCN2CCOCC2)c(OC)cc1Cl	0.0	1.6	0	0	5	2.0	1	4.5
CCOC(=O)c1sc2nc(N3CCCC3)c3c(c2c1N)CC(C)(C)OC3	-0.4	-116	-12	22	4	-0.6	1	0.5
c1ccc(-c2csc3ncnc(N4CCN(Cc5ccc6c(c5)OCO6)CC4)c23)cc1	0.1	2.0	6	17	25	-1.7	18	-1.4
Cc1noc(C)c1CSc1nc2[nH]ncc2c(=O)n1-c1ccccc1	-1.2	0.8	-2	1	-41	0.3	23	0.6
CCNC(=O)c1ccccc1CCc1ccccc1	0.0	/	-11	0	-8	-0.6	-5	3.3
COc1ccc(NC(=O)C2CCCN(C(=O)Nc3ccc(F)cc3)C2)cc1OC (stereo unspecified)	0.1	1.1	2	-1	-2	4.8	2	2.4
COc1ccc2c(CC(=O)NNC(=O)c3ccc(O)cc3)coc2c1	0.6	3.2	/	1	/	0.3	-2	/
CN(CC(O)COCc1ccccc1F)C1CCCCC1 (stereo unspecified)	0.2	2.8	-17	19	-1	-2.6	-1	2.4
CC(CCc1ccccc1)NC(=O)C(=O)N1CCOCC1 (stereo unspecified)	0.6	-0.2	7	8	4	-0.4	-8	4.3
CN(CC(O)COc1ccc(S(=O)(=O)N2CCOCC2)cc1Cl)C1CCCCC1 (stereo unspecified)	0.0	3.0	-7	-6	53	5.6	-4	2.8
Cn1nc(C(=O)N2CCc3ccccc32)c2ccccc2c1=O	0.0	1.6	-1	-9	9	-0.6	-1	-3.0
O=S(=O)(/N=C(/Nc1cccc2ccccc12)c1ccccc1)c1cccs1	-1.7	0.8	13	4	7	-2.8	1	6.7
C=CCNc1nc(N2CCOCC2)nc(N2CCOCC2)n1	0.5	4.9	-6	2	-1	6.2	3	5.8
COc1cccc(C(=O)Nc2cc(-c3cn4cccnc4n3)ccc2C)c1	1.3	i	5	-13	-6	-4.8	-2	-0.8
Cc1cc(N2CCN(C)CC2)nc2ccc(NC(=S)NCCCN3CCc4ccccc4C3)cc12	0.1	-6.3	-6	28	49	2.9	-11	5.4
O=C(NCCN1CCOCC1)c1ccc2c(c1)N(Cc1ccccc1F)C(=O)c1ccccc1S2	0.1	-0.5	-6	5	10	0.9	3	4.6
Cc1noc(C)c1S(=O)(=O)Nc1ccc2c(c1)C(=O)N([C@H](C)CO)C[C@H](C)[C@@H](CN(C)S(=O)(=O)c1ccccc1)O2	-0.5	1.3	/	-3	/	2.8	2	/
CCC1=NN2C(=N)/C(=C\c3cccn3-c3c(C)cccc3C)C(=O)N=C2S1	1.0	7.7	3	6	-21	1.1	-1	3.5
O=C(CN1CCN(Cc2ccccc2)CC1)NCCc1ccccc1	0.6	0.1	2	-8	17	3.0	/	1.2
Cc1cc(-c2ccc(C)c(S(=O)(=O)N3CCN(c4ccc(F)cc4)CC3)c2)on1	0.3	4.0	-6	-9	-15	3.9	0	-0.2
